Screens from PubChem BioAssay.
Env fusion inh: inhibitors of HIV-1 Env-driven cell-cell fusion, primary screen, HeLa-JRFL effector, CEM21 target cells, luciferase; inhibition, % at 12.3 µM; 360,000 compounds, 1.1% hits;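 active means mean replicate inhibition score of at least 50 and every replicate individually at or above 50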;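 further: 0% = plate neutral controls and 100% = maraviroc near 300 nM; one replicate is shown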
PABP polyA inh: PABP poly(A) RNA binding inhibitors, primary screen, biochemical, fluorescence polarization, uHTS; inhibition, % at 35 µM; 290,000 compounds, 1% hits;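 active means 50% or more with normal probe brightness, or confirmed in later tests; about a fifth of its hits are not listed in these tables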;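 further: calls also rest on retests at 20 µM and on dose response follow-up; controls were probe without protein and protein plus probe with vehicle; some compounds called inactive have numbers as strong as hits; many hits fall short of the cut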
CSC inhib: cancer stem cell viability inhibitors, primary screen, luminescence. inhibition, % at 7.5 µM. AID 2717, 2010. 300,000 compounds, 1.1% hits. cancer stem cell-like cells viability;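 active means mean at 75% or more and at least half the replicates too; tested in HMLE shEcad cells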;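 further: 0% = median of negative and 100% = median of positive control wells; the first replicate is given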
UUG fidelity: modulators of yeast start codon fidelity, primary screen, whole organism, S. cerevisiae, single point, plate reader | S. cerevisiae UUG-firefly luciferase reporter, luminescence/redox ratio | activity score, % at 18.7 µM | 350,000 compounds, 0.13% hits | AID 602363, 2012;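 active means replicate mean at a twofold rise or more, about +100% in these data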;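 further: firefly luciferase made from a UUG start codon reports start codon fidelity; reporter light over untreated wells divided by growth signal over untreated wells; some hits fall short of that in this replicate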
Rce1 inhib: yeast Rce1p protease inhibitors, primary screen, biochemical, fluorescence, cell-free homogeneous; CAAX prenyl protease 2 (Saccharomyces cerevisiae (strain ATCC 204508 / S288c)), Q03530; yeast membranes, quenched prenylated peptide cleavage fluorescence; calls only; 290,000 compounds, 0.27% hits;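 active means fall in fluorescence gain of 50% or more versus controls, with final raw signal at or below 3038400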;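 further: plate controls were neutral control wells for no effect and wells lacking membranes for full effect; tested at 10 µM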
Target sequence (Q03530 whole entry, looked up): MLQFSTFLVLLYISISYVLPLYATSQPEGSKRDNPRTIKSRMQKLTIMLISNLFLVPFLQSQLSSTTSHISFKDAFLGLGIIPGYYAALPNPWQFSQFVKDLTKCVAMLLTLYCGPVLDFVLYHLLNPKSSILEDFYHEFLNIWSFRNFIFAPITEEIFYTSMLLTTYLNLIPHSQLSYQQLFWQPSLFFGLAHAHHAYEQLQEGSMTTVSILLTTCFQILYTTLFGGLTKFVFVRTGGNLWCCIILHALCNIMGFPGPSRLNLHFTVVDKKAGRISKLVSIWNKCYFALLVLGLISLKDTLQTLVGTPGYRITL
eIF4H inh: human eIF4H binding inhibitors, primary screen, translation initiation inhibitor project, biochemical, uHTS, fluorescence polarization | Eukaryotic translation initiation factor 4H (Homo sapiens), Q15056 | eIF4H fluorescence polarization binding assay | inhibition, % at 35 µM | 290,000 compounds, 0.94% hits;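 active means 50% or more with normal probe brightness, or confirmed in later tests; about a fifth of its hits are not listed in these tables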;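 further: calls also rest on retests at 20 µM and on dose response follow-up; 0% = protein and probe with vehicle and 100% = probe without protein; strong numbers were not always called active; many hits fall short of the cut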
eIF4H inh retest: also measured in eIF4H inh; calls as there; inhibition, %; compound at 20 µM; confirmation average;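 mean of two retest wells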
PABP polyA inh retest: recorded beside PABP polyA inh, whose call it bears; inhibition, %; compound at 20 µM; confirmation repeats;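 mean of two retest wells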
Starred values were filed as active, the others as inactive; i = inactive; / = no result given; & = joins results of further samples; [ ] = another dose, or the depositor's remark. A portion of the library (hit frequency here may not be typical).

SMILES | Env fusion inh | PABP polyA inh | CSC inhib | UUG fidelity | Rce1 inhib | eIF4H inh | others
CC[C@H](C)[C@@H]1O[C@@]2(C=CC1C)CC1C[C@@H](CC=C(C)C(O[C@H]3CC(OC)C(O[C@H]4CC(OC)C(O)C(C)O4)C(C)O3)C(C)C=CC=C3CO[C@@H]4C(O)C(C)=C[C@@H](C(=O)O1)[C@]34O)O2 (stereo partly specified) | / | / | 103* | / | / | /
O=C1NC(=S)N(Cc2ccco2)C(=O)/C1=C\c1cccs1 | / | 2 | / | / | / | 74 | eIF4H inh retest=7;PABP polyA inh retest=2
CCCCn1c(=O)c(C(=O)Nc2nc3ccccc3[nH]2)c(O)c2ccccc21 | / | -6 | / | / | / | 13
NCCc1ccccn1 | / | / | 2 | / | i | /
Clc1ccc(CO/N=C(\Cn2ccnc2)c2ccc(Cl)cc2Cl)c(Cl)c1 | / | / | 103* | / | i | /
CCOC(=O)c1ccc(-[n+]2c(-c3ccccc3)cc(-c3ccccc3)cc2-c2ccccc2)cc1 | / | / | 11 | / | i | /
O=C(Cc1cccnc1)N1CCCCN2[C@H](C1)[C@@H](c1ccc(C#CC3CC3)cc1)[C@@H]2CO | / | / | / | -4 | / | /
O=C(Cc1cccnc1)N1CCCCN2[C@H](CO)[C@H](c3ccc(C#CC4CC4)cc3)[C@@H]2C1 | / | / | / | 5 | / | /
O=C(Cc1ccccc1)N1CCCCN2[C@@H](CO)[C@@H](c3ccc(C#CC4(O)CCCC4)cc3)[C@@H]2C1 | / | / | / | 8 | / | /
COc1ccc(-c2ccc([C@@H]3[C@H](CO)N4CCCCN(C(=O)Cc5ccncc5)C[C@@H]34)cc2)cc1 | / | / | / | -2 | / | /
COC(=O)[C@H]1[C@H](CO)[C@H]2Cn3c(cccc3=O)[C@@H]1N2C(=O)C1CCC1 | / | / | / | -2 | / | /
COc1ccc(-c2ccc([C@@H]3[C@@H](CO)N4CCCCN(C(=O)Cc5ccccc5)C[C@H]34)cc2)cc1 | / | / | / | -5 | / | /
O=C(O)[C@@H]1[C@@H](CO)[C@@H]2Cn3c(ccc(C4=CCCC4)c3=O)[C@H]1N2C(=O)Cc1ccccn1 | / | / | / | 28 | / | /
N#Cc1ccc(-c2ccc([C@H]3[C@H]4CN(C(=O)Cc5ccccc5)CCCCN4[C@H]3CO)cc2)cc1 | / | / | / | -2 | / | /
N#Cc1ccc(-c2ccc([C@H]3[C@@H](CO)N4CCCCN(C(=O)Cc5ccccc5)C[C@H]34)cc2)cc1 | / | / | / | -4 | / | /
O=C(Cc1ccncc1)N1CCCCN2[C@H](C1)[C@H](c1ccc(C#Cc3ccccc3F)cc1)[C@@H]2CO | / | / | / | 3 | / | /
O=C(Cc1cccnc1)N1CCCCN2[C@@H](CO)[C@H](c3ccc(C#CC4CCCC4)cc3)[C@@H]2C1 | / | / | / | 3 | / | /
COc1ccc(C#Cc2ccc([C@@H]3[C@@H](CO)N4CCCCN(C(=O)Cc5ccncc5)C[C@H]34)cc2)cc1 | / | / | / | -1 | / | /
COc1ccc(C#Cc2ccc([C@H]3[C@@H](CO)N4CCCCN(C(=O)Cc5ccccc5)C[C@H]34)cc2)cc1 | / | / | / | 5 | / | /
CCCC#Cc1ccc([C@@H]2[C@H](CO)N3CCCCN(C(=O)Cc4ccccn4)C[C@@H]23)cc1 | / | / | / | 1 | / | /
CN1[C@@H]2CNc3ccccc3[C@@H]2[C@@H]1CO | / | / | / | -2 | / | /
COc1ccc(-c2ccc([C@@H]3[C@@H](CO)N4CCCCN(C(=O)Cc5ccncc5)C[C@@H]34)cc2)cc1 | / | / | / | -3 | / | /
COc1ccc(-c2ccc([C@H]3[C@@H](CO)N4CCCCN(C(=O)Cc5ccncc5)C[C@H]34)cc2)cc1 | / | / | / | -3 | / | /
COc1cccc(-c2ccc([C@H]3[C@@H](CO)N4CCCCN(C(=O)Cc5ccncc5)C[C@H]34)cc2)c1 | / | / | / | -2 | / | /
OC[C@@H]1[C@@H]2c3ccccc3NC[C@@H]2N1Cc1cccnc1 | / | / | / | -21 | / | /
Cc1ccccc1-c1ccc([C@H]2[C@@H](CO)N3CCCCN(C(=O)Cc4ccccn4)C[C@@H]23)cc1 | / | / | / | -2 | / | /
COc1ccc(C#Cc2ccc([C@@H]3[C@H]4CN(C(=O)Cc5cccnc5)CCCCN4[C@H]3CO)cc2)cc1 | / | / | / | 4 | / | /
O=C(Cc1ccccc1)N1CCCCN2[C@H](CO)[C@H](c3ccc(C#Cc4ccccc4)cc3)[C@@H]2C1 | / | / | / | 52 | / | /
O=C(Cc1cccnc1)N1CCCCN2[C@@H](CO)[C@H](c3ccc(/C=C/c4ccccc4)cc3)[C@@H]2C1 | / | / | / | -17 | / | /
CC(C)CC#Cc1ccc([C@H]2[C@H](CO)N3CCCCN(C(=O)Cc4ccccn4)C[C@@H]23)cc1 | / | / | / | 14 | / | /
CN(C)CC#Cc1ccc([C@@H]2[C@H]3CN(C(=O)Cc4ccccn4)CCCCN3[C@H]2CO)cc1 | / | / | / | -7 | / | /
O=C(Cc1ccccn1)N1CCCCN2[C@@H](CO)[C@@H](c3ccc(C#Cc4ccccc4)cc3)[C@@H]2C1 | / | / | / | 10 | / | /
COC(=O)[C@H]1[C@H](CO)[C@H]2Cn3c(ccc(-c4ccccc4)c3=O)[C@@H]1N2C(=O)c1ccccc1F | / | / | / | 1 | / | /
Cc1ccccc1-c1ccc([C@H]2[C@@H](CO)N3CCCCN(C(=O)Cc4ccccn4)C[C@H]23)cc1 | / | / | / | 5 | / | /
CN(C)CC#Cc1ccc([C@@H]2[C@H](CO)N3CCCCN(C(=O)Cc4ccccn4)C[C@@H]23)cc1 | / | / | / | -7 | / | /
CN1c2ccc(Br)cc2[C@@H]2NCC[C@@H]2[C@@H]1CO | / | / | / | 3&7 | / | /
O=C(Cc1ccccn1)N1CCCCN2[C@H](CO)[C@@H](c3ccc(-c4ccccc4F)cc3)[C@@H]2C1 | / | / | / | 3 | / | /
COc1ccc(-c2ccc([C@H]3[C@@H](CO)N4CCCCN(C(=O)Cc5ccccc5)C[C@H]34)cc2)cc1 | / | / | / | 10 | / | /
N#Cc1cccc(-c2ccc([C@@H]3[C@@H](CO)N4CCCCN(C(=O)Cc5ccncc5)C[C@H]34)cc2)c1 | / | / | / | -20 | / | /
COC(=O)[C@@H]1[C@@H](CO)[C@@H]2Cn3c(ccc(-c4ccccc4)c3=O)[C@H]1N2CCc1ccccc1 | / | / | / | -5 | / | /

Three entries out of the list, ordered by molar mass, high to low:
SMILES | Env fusion inh | PABP polyA inh | CSC inhib | UUG fidelity | Rce1 inhib | eIF4H inh | others
Cc1ccccc1-c1ccc([C@H]2[C@@H](CO)N3CCCCN(C(=O)Cc4ccccn4)C[C@H]23)cc1 | / | / | / | 5 | / | /
CN(C)CC#Cc1ccc([C@@H]2[C@H](CO)N3CCCCN(C(=O)Cc4ccccn4)C[C@@H]23)cc1 | / | / | / | -7 | / | /
CN1c2ccc(Br)cc2[C@@H]2NCC[C@@H]2[C@@H]1CO | / | / | / | 3&7 | / | /

Additional entries follow:
SMILES | Env fusion inh | PABP polyA inh | CSC inhib | UUG fidelity | Rce1 inhib | eIF4H inh | others
CN(C)C(=O)[C@H]1[C@H](CO)[C@H]2Cn3c(cccc3=O)[C@@H]1N2CC1CC1 | / | / | / | -14 | / | /
COC(=O)[C@@H]1[C@@H](CO)[C@@H]2Cn3c(ccc(C4=CCCCC4)c3=O)[C@H]1N2Cc1ccccn1 | / | / | / | -6 | / | /
COC(=O)[C@@H]1[C@@H](CO)[C@@H]2Cn3c(ccc(-c4ccccc4F)c3=O)[C@H]1N2C(=O)C1CCC1 | / | / | / | -5 | / | /
O=C(Cc1ccccn1)N1CCCCN2[C@@H](CO)[C@@H](c3ccc(-c4ccccc4F)cc3)[C@@H]2C1 | / | / | / | -18 | / | /
N#Cc1cccc(-c2ccc([C@H]3[C@H](CO)N4CCCCN(C(=O)Cc5cccnc5)C[C@@H]34)cc2)c1 | / | / | / | 4 | / | /
COc1cccc(-c2ccc([C@H]3[C@H]4CN(C(=O)Cc5ccncc5)CCCCN4[C@H]3CO)cc2)c1 | / | / | / | -1 | / | /
COc1cccc(-c2ccc([C@@H]3[C@@H](CO)N4CCCCN(C(=O)Cc5ccncc5)C[C@H]34)cc2)c1 | / | / | / | -12 | / | /
COc1ccc(-c2ccc([C@H]3[C@H]4CN(C(=O)Cc5ccccc5)CCCCN4[C@H]3CO)cc2)cc1 | / | / | / | 19 | / | /
COc1ccc(C#Cc2ccc([C@H]3[C@H](CO)N4CCCCN(C(=O)Cc5ccccc5)C[C@@H]34)cc2)cc1 | / | / | / | 6 | / | /
COc1ccc(-c2ccc([C@@H]3[C@H](CO)N4CCCCN(C(=O)Cc5ccccc5)C[C@@H]34)cc2)cc1 | / | / | / | 8 | / | /
O=C(Cc1ccncc1)N1CCCCN2[C@@H](CO)[C@H](c3ccc(C#Cc4ccccc4F)cc3)[C@@H]2C1 | / | / | / | -2 | / | /
C/C=C/c1ccc([C@H]2[C@@H](CO)N3CCCCN(C(=O)Cc4cccnc4)C[C@@H]23)cc1 | / | / | / | -18 | / | /
O=C(Cc1ccccn1)N1CCCCN2[C@H](C1)[C@@H](c1ccc(-c3ccccc3)cc1)[C@@H]2CO | / | / | / | -7 | / | /
O=C(Cc1ccccc1)N1CCCCN2[C@H](CO)[C@@H](c3ccc(C#CC4(O)CCCC4)cc3)[C@H]2C1 | / | / | / | 2 | / | /
COc1ccc(C#Cc2ccc([C@H]3[C@@H](CO)N4CCCCN(C(=O)Cc5cccnc5)C[C@@H]34)cc2)cc1 | / | / | / | 13 | / | /
O=C(O)[C@H]1[C@H](CO)[C@H]2Cn3c(ccc(C4=CCCC4)c3=O)[C@@H]1N2C(=O)Cc1ccccn1 | / | / | / | 35 | / | /
COc1ccc(C#Cc2ccc([C@@H]3[C@H](CO)N4CCCCN(C(=O)Cc5ccccc5)C[C@@H]34)cc2)cc1 | / | / | / | -13 | / | /
COC(=O)[C@H]1[C@H](CO)[C@H]2Cn3c(cccc3=O)[C@H]2N1CC1CC1 | / | / | / | -1 | / | /
O=C(Cc1cccnc1)N1CCCCN2[C@H](C1)[C@H](c1ccc(C#CC3CCCC3)cc1)[C@@H]2CO | / | / | / | 3 | / | /
COC(=O)[C@H]1[C@H](CO)[C@H]2Cn3c(ccc(-c4ccccc4F)c3=O)[C@@H]1N2C(=O)C1CCC1 | / | / | / | -9 | / | /
COC(=O)[C@@H]1[C@@H](CO)[C@@H]2Cn3c(cccc3=O)[C@H]1N2C(=O)C1CCCC1 | / | / | / | 11 | / | /
O=C(Cc1ccccc1)N1CCCCN2[C@H](C1)[C@H](c1ccc(-c3ccccc3)cc1)[C@@H]2CO | / | / | / | 1 | / | /
N#Cc1ccc2nc(-c3ccc(CN4CCC(n5nnc6ccccc65)CC4)cc3)c(-c3ccccc3)nc2c1 | 31 | / | / | / | / | /
COC(=O)C[C@@H]1CC[C@H]2NC[C@@H](O)COC[C@@H]2O1 | 14[16.7 µM] | / | / | / | / | /
N#Cc1ccc(NC(=S)N2Cc3ccc(Br)cc3-n3nncc3C2)cc1 | 17 | / | / | / | / | /
COC(=O)[C@H]1[C@H](CO)[C@H]2Cn3c(cccc3=O)[C@@H]1N2C(=O)C1CC1 | 0[16.7 µM] | / | / | / | / | /
O=C(O)[C@@H]1[C@@H](CO)[C@@H]2Cn3c(ccc(C4=CCCCC4)c3=O)[C@H]1N2C(=O)Cc1ccccn1 | 6[16.7 µM] | / | / | / | / | /
CN1OC[C@@H]2CN3C4(C[C@@H]21)c1ccccc1C3(c1ccccc1)c1ccccc14 | -14 | / | / | / | / | /
O=C(O)[C@@H]1[C@@H](CO)[C@@H]2Cn3c(ccc(-c4ccncc4)c3=O)[C@H]1N2S(=O)(=O)c1ccccc1F | -43[16.7 µM] | / | / | / | / | /
O=C(O)[C@H]1[C@H](CO)[C@H]2Cn3c(ccc(-c4ccncc4)c3=O)[C@@H]1N2S(=O)(=O)c1ccccc1F | -18[16.7 µM] | / | / | / | / | /
CS(=O)(=O)N1Cc2cc(Br)ccc2-n2nncc2C1 | 19 | / | / | / | / | /
O=C(NCCN1CCC2(CC1)C(=O)NCN2c1ccccc1)c1cc(C(F)(F)F)ccc1C(F)(F)F | -4 | / | / | / | / | /
